# Source: PubChem
# Cruzain noTriton: inhibitors of Trypanosoma cruzi cruzain without detergent. P25779. purified cruzain, Z-FR-AMC fluorescence, no detergent. Potency, µM, without a hit: max response, negative = inhibition, actives largely listed as inhibitors. hit rate 2.3% among 200,000; active means well fitted curve in the direction sought with a large enough effect; inconclusive means small, poorly fitted or top-dose-only effect, or another doubt; inactive means no such curve, though single readings can be large; an effect the other way counts as inactive or inconclusive;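 further: plate controls were enzyme without inhibitor for no effect and buffer without enzyme for full effect; nearly all actives have a fitted effect of over 40% in size; top concentration of the series not given in the record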
# Target sequence (P25779 123-467 limits assumed): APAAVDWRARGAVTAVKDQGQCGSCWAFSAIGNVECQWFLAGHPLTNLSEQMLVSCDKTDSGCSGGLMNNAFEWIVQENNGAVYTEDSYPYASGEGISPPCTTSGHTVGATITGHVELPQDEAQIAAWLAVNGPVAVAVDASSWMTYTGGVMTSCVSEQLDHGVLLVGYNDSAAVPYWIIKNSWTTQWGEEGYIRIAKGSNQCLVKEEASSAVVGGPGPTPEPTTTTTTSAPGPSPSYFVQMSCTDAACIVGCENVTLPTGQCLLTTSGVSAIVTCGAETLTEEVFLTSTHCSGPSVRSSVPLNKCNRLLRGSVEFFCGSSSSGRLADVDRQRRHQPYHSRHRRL
#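 Purified cruzain at 1.5 nM, pre-incubated 15 min with compound at room temperature in 100 mM sodium acetate pH 5.5, 5 mM DTT, 0.00005% Triton X-100. Reaction started with 2 uM Z-FR-AMC; AMC fluorescence increase over 60 s gives rate.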
# 2A StopGo: lowers the luciferase signal of an FMDV 2A StopGo reporter. human cells with a luciferase reporter of 2A StopGo recoding; control for the full effect not named in the record. Potency, µM (top dose mostly 57.9 µM), without a hit: top-dose signal change, negative = less light. hit rate 1.2% among 410,000; active = well fitted falling curve with a large enough effect; inconclusive = small, poorly fitted or top-dose-only effect; inactive = no such curve, though single readings can be large or run the other way; tested in HEK293T cells; further: on the % scale 0 is the no-effect control and ±100 the full control effect; nearly all actives have a fitted effect of over 45% in size; luciferase light after 4 h
# SARS PLpro yeast: SARS-CoV PLP inhibition in yeast | hit rate 0.19% among 330,000 | Potency, µM (series often up to 32.9 µM), for inactives: at the highest dose activity, positive = growth rescue | S. cerevisiae expressing SARS-CoV PLpro, growth rescue; control for the full effect not named in the record; further: 0% is about no effect; nearly all actives have a fitted effect of over 55% in size; growth read by luminescence after 48 h
# NS1 inh: inhibitors of influenza NS1 protein function; S. cerevisiae slowed by influenza A NS1, growth recovery by OD600; Potency, µM (top dose mostly 46.1 µM), inactives show at the top dose activity, positive = more growth; hit rate 0.4% among 270,000; AID 2326; further: actives are rising curves; nearly all actives have a fitted effect of over 50% in size
#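 In this qHTS, NS1 from influenza A is expressed in budding yeast, where it slows growth. Cells are switched from glucose to 2% galactose medium (pH 6.0, -URA), treated with compound, and growth recovery is read at OD600.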
# Cruzain inh Det: blocks cruzain activity in presence of Triton detergent; hit rate 0.43% among 200,000; Potency, µM, for the others: max response, negative = inhibition, actives largely listed as inhibitors; purified cruzain, Z-FR-AMC fluorescence, 0.01% Triton; active means well fitted curve in the direction sought with a large enough effect; inconclusive means small, poorly fitted or top-dose-only effect, or another doubt; inactive means no such curve, though single readings can be large; an effect the other way counts as inactive or inconclusive;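 further: plate controls were neutral wells for no effect and buffer without enzyme for full effect; nearly all actives have a fitted effect of over 40% in size; top concentration of the series not given in the record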
#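 Cysteine protease activity tested under reducing, mildly acidic conditions (100 mM sodium acetate pH 5.5, 5 mM DTT) plus 0.01% Triton X-100. Cruzain 1.5 nM; substrate Z-FR-AMC 2 uM; 15 min compound preincubation at room temperature.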
# Lassa entry inh: Lassa virus entry inhibition; hit rate 1.2% among 300,000; Potency, µM (top dose mostly 37.9 µM), without a hit: at the highest dose activity change, negative = inhibition, most hits filed as inhibitors; AID 540256; Lassa virus pseudotype entry inhibition, cell reporter; control for the full effect not named in the record; active means well fitted inhibition curve with a large enough effect; inconclusive means small, poorly fitted or top-dose-only effect, or effect the other way; inactive means flat fitted curve, though single readings scatter; tested in HEK293 cells; further: on the % scale 0 is the no-effect control and ±100 the full control effect; nearly all actives have a fitted effect of over 50% in size; luciferase read-out
# MARV entry inh: inhibitors of Marburg virus binding or cell entry | Marburg virus pseudotyped entry inhibition, cell reporter; control for the full effect not named in the record; about a third of the inactives were read at about 46 µM | Potency, µM (doses to about 37.8 µM), inactives show at the top dose activity change, negative = inhibition, actives largely listed as inhibitors | hit rate 1.8% among 300,000 | AID 540276; active = well fitted inhibition curve with a large enough effect; inconclusive = small, poorly fitted or top-dose-only effect, or effect the other way; inactive = flat fitted curve, though single readings scatter; tested in HEK293 cells; about a fifth of its hits are not listed in these tables; further: on the % scale 0 is the no-effect control and ±100 the full control effect; luciferase read-out
# RE007 growth inh: less growth of the S. pombe RE007 Vpr strain. S. pombe RE007 Vpr strain, BacTiter-Glo ATP luminescence, 24 h; control for the full effect not named in the record. Potency, µM (series often up to 92.2 µM), inactives show top-dose activity change, negative = less growth. AID 651644. hit rate 0.21% among 360,000; active = well fitted falling curve with a large enough effect; inconclusive = small, poorly fitted or top-dose-only effect; inactive = no such curve, though single readings can be large or run the other way;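 further: on the % scale 0 is the no-effect control and ±100 the full control effect; nearly all actives have a fitted effect of over 50% in size; the assay follows cell death caused by Vpr and the record does not say whether a fall means rescue or toxicity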
#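 Fission yeast strain RE007, carrying one chromosomally integrated HIV-1 vpr copy, was seeded at OD 0.01 in PMG+AL medium with 23 nL pinned compound. After 24 h at 30 °C and 99% humidity, viability was read by BacTiter-Glo luminescence.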
# * = called active by the depositor; ? = inconclusive; · = not tested or not shown; & = joins results of further samples; [ ] = remark or other dose. Unless noted, the call rests on the fitted dose curve; in most records, active means well fitted rising curve with a large enough effect; inconclusive means small, poorly fitted or top-dose-only effect; inactive means no such curve, though single readings can be large or run the other way. Potency means the concentration at half of the fitted maximal effect.
SMILES	Cruzain noTriton	2A StopGo	SARS PLpro yeast	NS1 inh	Cruzain inh Det	Lassa entry inh	MARV entry inh	RE007 growth inh
O=C(NCc1ccc(F)cc1)C(=O)NCC1OCCCN1S(=O)(=O)c1cccs1 (stereo not drawn)	·	-11%	2%	0%	·	-21%[46.1 µM]	15%[46.1 µM]	18%
CCOc1ccc(C2N(c3ccc(OC)cc3)C(=O)C3CCCN32)cc1OC (stereo not drawn)	-2%	-9%	3%	25%	1.8%	·	-1%	0%
Cc1ccc(NS(=O)(=O)c2cccc(C(=O)NNC(=O)c3ccco3)c2)c(C)c1	·	1%	-4%	·	·	-1%	-5%	7%
Cc1onc(-c2c(F)cccc2Cl)c1C(=O)Nc1cccc(S(=O)(=O)NCc2ccco2)c1	·	8%	-4%	·	·	1%	-12%[46.1 µM]	5%
COc1cc(Cl)c(C)cc1NC(=O)CSc1ccc(C)cc1	-4%	-29%	2%	7%	-2.8%	14%	-25%	-5%
CC(NC(=O)COC(=O)c1cc(S(=O)(=O)N2CCOCC2)ccc1F)c1ccccc1 (stereo not drawn)	·	4%	5%	·	·	16%	1%	1%
O=C(/C=C/c1ccccc1)c1ccc2c3c(cccc13)CC2	-6%	4%	-19%	3%	-7.9%	?	?	-15%
Cc1ccc(NC(=O)C(C)c2cccc(C(=O)c3ccccc3)c2)cc1 (stereo not drawn)	8%	·	-14%	-61%	-1.2%	3%	-14%	-9%
COC(=O)c1cc(=O)nc2sc3cc(OC)ccc3n12	-9%	-14%	14%	2%	-7.6%	-2%	?	-9%
CC1(C)CC(/C=C/c2ccccc2)=Nc2ccccc2N1	·	0%	-3%	-32%	·	·	·	-23%
Cc1c(NC(=S)NC(=O)c2ccc(Br)o2)c(=O)n(-c2ccccc2)n1C	·	10%	0%	11%	·	·	·	-1%
COc1ccc(OC)c(C(=O)CSc2nnc(-c3ccc(OC)c(OC)c3)o2)c1	-13%	·	-1%	-3%	-2.5%	·	-4%	·
O=C(CCNC(=O)c1ccc(Br)cc1)NNC(=O)c1ccccc1	·	22%	17%	·	·	3%	?	-7%
CC(C)C(NC(=O)c1ccccc1F)C(=O)NCc1ccc(F)cc1 (stereo not drawn)	·	4%	1%	-1%	·	-4%	0%[46.1 µM]	9%
COC(=O)C(CC(C)C)NC(=O)/C=C/c1ccccc1Cl (stereo not drawn)	-21%	-17%	4%	-28%	-9.6%	?	?	11%
COc1ccc(/C=C(\C#N)c2nc3ccccc3c(=O)[nH]2)cc1OC	1%	?	·	·	-1.0%	8%[46.1 µM]	·	·
O=C(c1ccc(N2CCN(C(=O)c3ccccc3)CC2)cc1)c1cccc(F)c1	·	-22%	-7%	-40%	·	-22%[46.1 µM]	?	-15%
CC(C)(C)C(=O)/C=C/Nc1ccccc1O	-12%	14%	-25%	-105%	0.3%	?	-13%	?
COCCCNC(=O)c1ccccc1C(F)(F)F	·	-8%	-1%	-3%	·	·	·	-6%
c1ccc(CCc2nn3c(Cc4ccccc4)nnc3s2)cc1	-1%	-1%	-5%	-82%	0.9%	?	10%	-5%
CSCCC(NS(=O)(=O)c1ccccc1F)C(=O)N1CC=C(c2ccccc2)CC1 (stereo not drawn)	·	5%	·	25%	·	5%	?	1%
CCCOC(=O)CSc1nnc(-c2ccccc2Cl)o1	1%	-22%	16%	-73%	-0.6%	5%	17%	-23%
O=C(c1ccccc1C(F)(F)F)N1CCN(S(=O)(=O)c2ccccc2)CC1	-2%	-11%	4%	15%	-1.0%	-6%	5%	13%
CN(c1ccccc1)S(=O)(=O)c1ccc(Cl)c(C(=O)NCC(c2ccco2)N2CCCC2)c1 (stereo not drawn)	·	-6%	-2%	·	·	-17%	?	1%
O=C(Oc1cccnc1)c1ccc(Cl)c(Cl)c1	-1%	-27%	-9%	-80%	-3.1%	-13%	6%	32µM*
CC1CCCCN1S(=O)(=O)CCNC(=O)c1ccccc1 (stereo not drawn)	·	-14%	-3%	·	·	11%	8%[46.1 µM]	-12%
Cc1ccc(-c2csc(N)n2)s1	0%	50%[activator]	-21%	?	-2.5%	13%	6%	-21%
Cc1nc2nncn2c(NCc2ccc(F)cc2)c1C	0%	?	·	·	-1.2%	-4%[46.1 µM]	5%[46.1 µM]	·
CCN(CC(=O)Nc1ccc(NC(C)=O)cc1)C(=O)CCCN1C(=O)c2ccccc2C1=O	·	12%	-5%	·	·	3%[46.1 µM]	4%	2%
O=C(COC(=O)c1cc(=O)c2ccccc2o1)NC1CCCCC1	·	-3%	-4%	·	·	-6%	29%[46.1 µM]	1%
COc1ccc(N2CCN(C(=S)Nc3ccc(S(N)(=O)=O)cc3)CC2)cc1	·	-27%	-1%	5%	·	2%	7%[46.1 µM]	-3%
O=C(NNS(=O)(=O)c1ccc(F)cc1)c1cnn(-c2ccccc2)c1C(F)(F)F	·	4%	-1%	-4%	·	·	·	-14%
O=C(Nc1ccc(Br)cc1F)C(NS(=O)(=O)c1cccc2nsnc12)c1ccccc1 (stereo not drawn)	?	37%[activator]	·	·	-9.1%	?	-32%[46.1 µM]	·
COC(=O)CC1=C(C(=O)OC)C2(C(=O)N(C)c3ccccc32)C(C#N)=C(N)O1 (stereo not drawn)	-7%	0%	-8%	-8%	0.1%	1%	2%	-4%
CC1=C(C(=O)OC(C)C)C(c2ccc(C)o2)NC(=O)N1 (stereo not drawn)	-9%	13%	-4%	1%	-1.1%	9%	4%	-4%
C#Cc1ccc([C@@H]2C=C(C(=O)N3CCN(Cc4ccccc4)CC3)O[C@H](OCC)[C@H]2CCCO)cc1	·	-28%	0%	-9%	·	·	·	1%
COc1ccccc1N1CCNC(C)C1=O (stereo not drawn)	·	-8%	·	-10%	·	?	0%	4%
CCOC(=O)C(=O)NNc1ccc(C)cc1	-2%	-10%	-21%	-6%	-0.8%	-4%	7%	75%
CC(=O)NCCc1c[nH]c2ccc(OCC(O)CNC(C)(C)C)cc12 (stereo not drawn)	·	2%	0%	-3%	·	9%[46.1 µM]	9%[46.1 µM]	-2%
CCc1nnc(NC(=O)CSc2nc(SC)ns2)s1	·	12%	0%	·	·	19%	35%[46.1 µM]	-1%
COc1ccc(N(C(=O)Cn2nnc3ccccc32)C(C(=O)NCc2ccccc2)c2ccc(F)cc2)cc1 (stereo not drawn)	1%	2%	·	·	-2.2%	-3%[46.1 µM]	-6%[46.1 µM]	·
O=C(NNC(=O)c1ccc(S(=O)(=O)N2CCCCC2)cc1)c1ccc(F)cc1	·	-8%	0%	5%	·	-16%	-9%	-6%
COc1ccc(CC(=O)Nc2sc3c(c2C(=O)Nc2cccc(Cl)c2)CCCCC3)cc1	?	?	·	·	-5.7%	-8%[46.1 µM]	·	·
CS(=O)(=O)Nc1ccc(C2=NN(S(C)(=O)=O)C(c3ccc4c(c3)OCO4)C2)cc1 (stereo not drawn)	?	3%	-3%	7%	-4.2%	12%	?	5%
O=C1OC(/C=C/c2ccc(Cl)cc2Cl)=NC/1=C\c1cccs1	25µM*	-23%	14%	24%	?	1%	-10%	10%
O=S(=O)(NCc1nc2cccnc2n1Cc1ccccc1Cl)c1ccc(F)c(Cl)c1	-2%	13%	·	·	-6.4%	-16%[46.1 µM]	·	·
COc1ccc(NC(=O)c2oc3ccccc3c2NC(=O)c2ccco2)c(OC)c1	19%	-22%	-5%	-4%	-0.4%	-7%	-1%	-4%
CC(C)CCNC(=O)CN(C(=O)CCC(=O)Nc1nccs1)C1CCCCC1	·	15%	-6%	-2%	·	2%	1%[46.1 µM]	-10%
COc1cc(OC)c(NC(=O)c2cn(C3CCCC3)c(=O)c3c2c2ccccc2n3C)cc1Cl	4%	-24%	·	·	-2.0%	26%[46.1 µM]	1%[46.1 µM]	·
CSCCC(NC(=O)c1ccccc1)C(=O)NC1CCCC1 (stereo not drawn)	8%	24%	2%	5%	4.0%	19%	17%	13%

# Carrying on:
SMILES	Cruzain noTriton	2A StopGo	SARS PLpro yeast	NS1 inh	Cruzain inh Det	Lassa entry inh	MARV entry inh	RE007 growth inh
Cc1cc(C(=O)Nc2ccc3c(c2)OCO3)cs1	-29%	0%	-12%	23%	0.4%	?	-26%	-21%
O=C(Nc1ccccc1Cl)c1ccccc1	·	58%[activator]	0%	·	·	13%	21%[46.1 µM]	0%
NC(=O)CC(NC(=O)Cc1ccc(Cl)cc1)c1ccc(NC2CCCCCC2)c([N+](=O)[O-])c1 (stereo not drawn)	·	-22%	0%	23%	·	·	·	12%
ClC(Cl)(Cl)c1nc(N/N=C/c2ccncc2)c2ccccc2n1	·	0%	1%	·	·	12%[46.1 µM]	?	11%
Cc1cc(C)nc(N/N=C2/CCSc3ccc(F)cc32)n1	·	18%	-4%	-64%	·	1%	1%[46.1 µM]	-25%
COc1ccc(N2CCN(C(CNC(=O)C(=O)NCC3CCCO3)c3ccco3)CC2)cc1 (stereo not drawn)	-5%	?	-12%	-4%	-1.4%	-2%	12%	7%
Cc1ccc(OC(C)C(=O)Nc2ccc3c(c2)n(C)c(=O)n3C)cc1C (stereo not drawn)	·	-27%	-3%	-13%	·	?	-5%[46.1 µM]	-4%
CN(Cc1ccccc1F)c1nc(-c2cccnc2)nc2ccccc12	·	?	-13%	-53%	·	?	?	32%
CCCSc1nnc2c(n1)OC(c1ccc(OCC(=O)O)cc1)Nc1ccccc1-2 (stereo not drawn)	-12%	16%	·	·	-2.8%	-1%[46.1 µM]	·	·
Cc1ccc(Cl)cc1NC(=O)N[C@@H](CC(C)C)C(=O)O	·	-6%	-1%	-3%	·	-2%	13%[46.1 µM]	0%
Cn1c[n+](C)cc1C(O)c1ccccc1 (stereo not drawn)	1%&-8%	-4%&9%	4%&0%	-1%&7%	4.6%&4.1%	9%&-13%	-4%&-4%&13%	-8%&7%
O=C1CN(C(=O)c2cccc(F)c2)C(c2ccc(F)cc2)c2cc(F)ccc2N1 (stereo not drawn)	·	-6%	1%	-2%	·	-2%	-20%	-9%
